# Hsc70 = Hsc70 inhibitors, probe displacement, primary screen, biochemical, fluorescence polarization (AID 568). Hsc70 fluorescence polarization, probe displacement; higher % means a stronger effect; strong numbers were not always called active. displacement, % at 20 µM; hits with a dose series show IC50 in µM. 83,000 tested, under 10 active;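 active = displacement above 50% without optical interference and an IC50 on retest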;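 note: ATPase domain with a fluorescein-tagged ATP probe; 0% = vehicle and 100% = excess ADP; read after one hour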
# MT1-MMP reporter = inhibitors of MT1-MMP promoter transcription, cell-based, luciferase reporter, luminescence (AID 618). MT1-MMP promoter luciferase reporter cells, luminescence. calls from a first round at 10 µM; hits with a dose series show EC50 in µM. hit rate 0.62% among 87,000;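 active = over half of the reporter light lost at 10 µM or EC50 under 50 µM; inactive = the rest and hits that failed the dose series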;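 note: actives suppress MT1-MMP promoter-driven transcription so potencies describe inhibitors; HT1080 fibrosarcoma cells; overnight exposure; toxic or luciferase-blocking compounds were not removed from the actives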
# WNV NS2B-NS3 inh = inhibitors of WNV NS2B-NS3 protease, primary screen, biochemical, fluorogenic substrate; fluorogenic substrate Ex360/Em465; stronger effect = lower value; z-score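 (tested at a level between 10 and 100 µM)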; hit rate 0.18% among 65,000; AID 577, 2007;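 active = z-score at -3 or under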;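 note: score is relative to mean and spread of the compound wells of a plate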
# Target sequence (P06935 1371-1501 limits assumed): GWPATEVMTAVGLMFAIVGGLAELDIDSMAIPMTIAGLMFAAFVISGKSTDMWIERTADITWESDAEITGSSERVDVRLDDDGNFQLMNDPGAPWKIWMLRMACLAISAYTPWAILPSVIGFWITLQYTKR
# Target sequence (P06935 1502-1679 limits assumed): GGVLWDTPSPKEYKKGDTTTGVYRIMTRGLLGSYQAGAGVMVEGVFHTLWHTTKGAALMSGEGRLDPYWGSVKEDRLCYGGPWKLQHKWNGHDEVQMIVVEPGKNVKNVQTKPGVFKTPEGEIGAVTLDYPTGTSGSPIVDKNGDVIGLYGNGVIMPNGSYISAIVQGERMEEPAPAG
# Numbers without * were called inactive; i = inactive; · = not tested or not shown; + = active, no number.
structure,MT1-MMP reporter,WNV NS2B-NS3 inh,Hsc70
Cc1ccc2c(c1)C1(OCCO1)C(=O)N2,i,·,1.2%
COc1ccc(NC(=O)CSc2nnc(Cc3ccccc3)o2)c(OC)c1,i,-1.2,-3.9%
c1ccc(-c2nnc3sc(-c4ccncc4)nn23)cc1,i,0.37,-1.3%
CCCCNC(=S)NNC(=O)c1nn(C)cc1Cl,i,·,-0.2%
Cc1cc(=O)[nH]c(SCC(=O)Nc2nc(-c3ccccc3)cs2)n1,i,-0.35,-22%
O=C(C1CCN(S(=O)(=O)c2cccc3cccnc23)CC1)N1CCN(c2ccccc2)CC1,i,-0.3,0.3%
COc1ccc(Oc2cc(C(F)(F)F)cnc2C(N)=O)cc1,i,·,0.6%
CC1(O)C(=O)c2ccccc2N(c2ccccc2)C1=O (stereo not given),i,·,-1.1%
COC(=O)C1=C(O)CSC1=Nc1cccc(C(F)(F)F)c1,i,-0.31,-3.6%
O=C(Nc1ccccc1C(=O)O)c1ncn[nH]1,i,-1,0.2%
COc1ccc(-c2noc(-c3ccccc3-c3ccccc3)n2)cc1,i,·,4.6%
O=C(c1ccc(Cl)cc1)c1ccc(OCC(O)CN2CCCCC2)cc1 (stereo not given),i,·,0.3%
Cc1ccc(C2CC(=O)C=C(O)C2)cc1 (stereo not given),i,·,-1.6%
CCOc1ccc(NC(=O)c2cnc3scc(C)n3c2=O)cc1,i,-0.42,3.9%
CCOc1c(Br)cc(C(N)=O)cc1OC,i,0.59,4.9%

# Other structures follow:
structure,MT1-MMP reporter,WNV NS2B-NS3 inh,Hsc70
O=S(=O)(Nc1ccc2c(c1)nc1n2CCN(Cc2ccccc2)C1)c1ccc(Cl)cc1,i,0.03,-14%
Cc1[nH]c2ccc3c(ncn3CCC#N)c2c1C,i,-0.44,-10%
CCn1cc(C(=O)O)c(=O)c2cnc(N3CCN(C(=O)Nc4ccccc4)CC3)nc21,i,-0.22,8.2%
Cc1ccc(C)c2[nH]c(=O)c(CN(CCCN(C)C)C(=O)NCc3ccccc3)cc12,i,1.8,5.1%
COc1ccc(C2NC(=O)CS2)cc1OC (stereo not given),i,0.23,-0.2%
CCc1nc(N)c(C#N)c(-c2ccccc2OC)c1C,i,0.52,3.6%
Cc1ccc(N2CC(C(=O)Oc3cccc(N4C(=O)CCC4=O)c3)CC2=O)cc1 (stereo not given),i,-1.5,4.2%
Cc1ccc(N=c2oc3cc(O)ccc3cc2C(N)=O)cc1,i,-1.1,1.2%
O=C(Nc1ccc(S(=O)(=O)Nc2ccc(Cl)cc2)cc1)C1CCCO1 (stereo not given),i,0.08,8.0%
CCOc1ccccc1NC(=O)Cc1coc2cc(C)ccc12,i,·,8.4%
Cn1c(SCc2ccccc2)nnc1-c1ccncc1,i,-0.81,-14%
CCn1c(SCC(=O)c2ccccc2)nnc1-c1cccs1,i,·,-3.9%
COc1ccc(-c2nc(S(=O)(=O)c3ccc(C)cc3)c(N3CCCC3)o2)cc1,i,-0.51,-0.3%
CC1CCc2cc(F)cc3c(O)c(C(=O)NCc4ccco4)c(=O)n1c23 (stereo not given),i,0.21,-3.5%
CSc1nc(C)cc(OCCNS(=O)(=O)c2cc(C)ccc2C)n1,i,0.0075,-4.6%

# An excerpt from above in order of molar mass, falling.
structure,MT1-MMP reporter,WNV NS2B-NS3 inh,Hsc70
COc1ccc(-c2nc(S(=O)(=O)c3ccc(C)cc3)c(N3CCCC3)o2)cc1,i,-0.51,-0.3%
O=C(Nc1ccc(S(=O)(=O)Nc2ccc(Cl)cc2)cc1)C1CCCO1 (stereo not given),i,0.08,8.0%
COc1ccc(Oc2cc(C(F)(F)F)cnc2C(N)=O)cc1,i,·,0.6%
CCOc1ccccc1NC(=O)Cc1coc2cc(C)ccc12,i,·,8.4%
CCc1nc(N)c(C#N)c(-c2ccccc2OC)c1C,i,0.52,3.6%

# (next part)
structure,MT1-MMP reporter,WNV NS2B-NS3 inh,Hsc70
Cn1c(=O)[nH]c(=O)c2c1nc(NCc1ccccc1)n2CC(O)c1ccccc1 (stereo not given),i,-0.58,-0.8%
O=NC1=C(c2c(O)[nH]c3ccccc23)CCCC1,i,1.2,-0.1%
CCOc1ccc(OCC)c(NC(=O)CSc2nnc(-c3cccnc3)o2)c1,i,-0.99,1.0%
Cc1ccc(-c2nnn(CC(=O)N(Cc3cccs3)C(C(=O)NC3CCCC3)c3ccncc3)n2)cc1 (stereo not given),i,·,-6.4%
COC(=O)C1=C(N)Oc2cc(C)n(Cc3ccccc3)c(=O)c2C1c1ccccc1 (stereo not given),i,·,-2.1%
COc1cccc(NC(=O)Cn2c(=O)n(CCCC(=O)NCc3ccco3)c(=O)c3ccccc32)c1,i,-0.29,-3.5%
CS(=O)(=O)N(CC(=O)N1CCc2ccccc2C1)Cc1ccccc1,i,·,2.8%
CCNC(=O)NC(=O)CSc1ccc(NC(C)=O)cc1,i,-1.6,-2.7%
Cc1cc(C)c(S(=O)(=O)N(C2=NCCS2)S(=O)(=O)c2c(C)cc(C)cc2C)c(C)c1,i,·,0.3%
CC(=O)N1CCC2(CC1)C(C#N)=C(N)Oc1n[nH]c(CSc3ccc(C)cc3)c12,i,1,-4.4%
CS(=O)(=O)c1sc2nc(-c3ccccc3)cc(-c3ccccc3)c2c1N,i,·,0.6%
CCC(=O)N1CCc2cc(S(=O)(=O)CCC(=O)Nc3ccc(C)c(F)c3)ccc21,i,-0.42,-4.1%
O=C1CC(c2cccs2)Sc2nc3ccccc3n21 (stereo not given),i,0.25,-0.3%
O=C(CSc1ncc(-c2ccc(F)cc2)[nH]1)Nc1cccc(O)c1,i,-0.57,-4.2%
O=c1nc(/C=C/c2ccc(-c3ccc(F)cc3)o2)cc(C(F)(F)F)[nH]1,i,·,-118%

# Looked up one by one from the list above:
structure,MT1-MMP reporter,WNV NS2B-NS3 inh,Hsc70
O=c1nc(/C=C/c2ccc(-c3ccc(F)cc3)o2)cc(C(F)(F)F)[nH]1,i,·,-118%
CCC(=O)N1CCc2cc(S(=O)(=O)CCC(=O)Nc3ccc(C)c(F)c3)ccc21,i,-0.42,-4.1%

# Other structures:
structure,MT1-MMP reporter,WNV NS2B-NS3 inh,Hsc70
CCOC(=O)c1sc(NC(NC(=O)c2ccco2)(C(=O)OC)C(F)(F)F)nc1C (stereo not given),i,-1.7,2.6%
COc1ccccc1N1CCN(S(=O)(=O)c2ccc(Cl)s2)CC1,i,0.16,2.6%
Cn1ccnc1SCc1cc(=O)[nH]c2ccccc12,i,0.32,2.0%
CCOC(=O)CC1ON(C)C(=O)N1c1ccc([N+](=O)[O-])cc1 (stereo not given),i,·,-7.9%
N#Cc1c(/N=C/c2ccco2)sc2c1CCC2,i,0.00064,2.9%
O=C(Cc1cccs1)Nc1nnc(CCc2ccccc2)s1,i,0.68,-0.3%
CCOC(=O)CSc1nnc(CNc2ccc(Cl)cc2)n1-c1ccccc1,i,-0.21,-0.8%
CC(C)(C)c1ccc(SCC(N)=O)cc1,i,1.2,-0.9%
Cc1ccc(CN(CC(=O)NCCc2ccccc2)C(=O)CCCC(=O)Nc2cc(C)on2)cc1,i,0.09,-3.8%
COc1ccc(-c2coc3cc(O)cc(O)c3c2=O)cc1,i,0.11,2.0%
CCOC(=O)c1cc2c(ccn2C)n1CC(=O)N1CCC(C)CC1,i,·,6.0%
CCCCN1C2CCCC1CC(NC(=O)c1ccc(OC)c(OC)c1)C2 (stereo not given),i,0.27,4.1%
CCc1cc2ccc(C)cc2nc1SCC(=O)N1CCN(C(=O)c2ccco2)CC1,i,-0.37,6.1%
CCCCN1Cc2cc(C(=O)c3cc(F)ccc3O)cnc2NC1=O,i,0.03,5.3%
O=C(c1ccccc1)N1CCCC(c2nc3c(nnn3Cc3ccccc3)c(=O)[nH]2)C1 (stereo not given),i,1.5,3.6%

# The list continues.
structure,MT1-MMP reporter,WNV NS2B-NS3 inh,Hsc70
CCOC(=O)C1(C)NC(c2ccc(N(C)C)cc2)C2C(=O)N(CC)C(=O)C21 (stereo not given),i,0.2,3.0%
Brc1ccc(-c2nc(-c3ccncc3)no2)o1,i,2,-2.3%
O=c1cc(CSc2nnnn2-c2ccccc2)[nH]c2[nH]n(-c3ccccc3)c(=O)c12,i,-0.93,-2.0%
CCCCCSc1nc2c(cnn2-c2ccccc2)c(=O)[nH]1,i,-0.43,-7.0%
O=C(Nc1nc2c(s1)CCCC2)c1ccc(Br)o1,i,1.6,-4.2%
CSc1nc(NC(C)=O)nc(C)c1Br,i,·,-2.3%
COc1cccc(CC(=O)NCC2COc3ccccc3O2)c1OC (stereo not given),i,0.03,-3.8%
COC(=O)c1sc(=S)n(-c2ccccc2)c1N,i,-0.55,-3.1%
CC(Sc1cccc2cccc(C(=O)O)c12)C(=O)O (stereo not given),i,0.05,5.0%
Cc1ccc(S(=O)(=O)N2CCCCC2C(=O)N2CCN(C)CC2)cc1 (stereo not given),i,·,-0.4%
CC(C)c1nc(NCCN2CCOCC2)c(C#N)c2c1COC(C)(C)C2,i,-0.03,3.1%
CCCCNC(=O)C(NS(=O)(=O)c1cccc2nsnc12)c1ccccc1 (stereo not given),i,-1.1,-4.6%
CCn1c(Sc2ccc(N)cc2Cl)nc2ccccc21,i,0.41,-0.1%
COc1cc(C)c(CNC2CCCCC2)cc1C,i,·,-5.2%
O=C(c1cnc2ccccn2c1=O)N1CCc2ccccc21,i,2.6,-0.7%

# (cont.)
structure,MT1-MMP reporter,WNV NS2B-NS3 inh,Hsc70
Cn1c(=O)cc(OCCCC(=O)Nc2ccccn2)c2ccccc21,i,0.3,3.1%
CSCCC(NS(=O)(=O)c1ccc2c(c1)oc(=O)n2C)C(=O)NC1CCCCC1 (stereo not given),i,-0.9,1.0%
COCCn1c(SCC(=O)Nc2cccc(C)c2)nnc1C(C)C,i,-1.2,-2.8%
COc1ccccc1OCC(=O)OCC(=O)NCCN1C(=O)CSC1=O,i,0.67,-3.3%
CCC(=O)N(Cc1ccco1)c1nc(-c2ccccc2)cs1,i,-0.18,-2.1%
Cc1csc(SCc2ccccc2C(=O)O)n1,i,0.36,5.0%
CN(Cc1ccccc1)C(=O)CSc1nc2c(c(C(F)(F)F)n1)CCc1ccccc1-2,i,·,3.4%
O=C(NCC(=O)N(c1cccc(F)c1)C(C(=O)NCC1CCCO1)c1ccccc1)c1ccco1 (stereo not given),i,1.2,-3.1%
CC(C)NS(=O)(=O)c1ccc(OCC(=O)N(C)Cc2ccccc2)cc1,i,·,-4.5%
Clc1ccc(CSc2nnc(-c3cccnc3)n2Cc2ccco2)c(Cl)c1,i,0.72,-27%
Cc1ccc(-c2nnn(CC(=O)N(Cc3ccccc3)C(C(=O)NC(C)(C)C)c3ccncc3)n2)o1 (stereo not given),i,-0.6,-4.1%
Cn1c(Cn2c(=O)sc3ccccc32)nnc1SCC(=O)N1CCCCCC1,i,-1.2,-1.0%
CC(C)C(NC(=O)c1ccccc1)C(=O)NC1=NCCS1 (stereo not given),i,-0.52,1.6%
COc1cc(C)c(C(C)C)cc1S(=O)(=O)n1cnc(C)c1,+,-0.83,2.6%
CCOC(=O)C1=C(C)N(C)C(=O)NC1c1cccc(O)c1 (stereo not given),i,-0.03,3.5%

# The listing continues:
structure,MT1-MMP reporter,WNV NS2B-NS3 inh,Hsc70
CN(C(=O)c1cccnc1)c1nc(-c2ccccc2)cs1,i,-0.42,-3.7%
COCCNc1nc2c(c(=O)n(C)c(=O)n2C)n1Cc1cccc(C)c1,i,-0.64,-7.9%
CCOC(=O)C1CCN(c2ncnc3c2oc2ccc(Br)cc23)CC1,i,0.45,-6.9%
CCn1c2c(c3cc(C(=O)O)ccc31)CCCC2=O,i,0.1,-0.2%
Cc1ccc(CSc2nnc(Cn3c(=O)sc4ccccc43)n2C)cc1,i,-0.48,-1.0%
CC(=O)c1sc2nc(SCC(=O)N3CCCCC3)[nH]c(=O)c2c1C,i,-1,-15%
CS(=O)(=O)Nc1ccccc1C(=O)Nc1cc(Cl)cc(Cl)c1,i,·,-1.8%
CCN(CC)c1ccc(NC(=O)C2CC3CCC2C3)cc1 (stereo not given),i,-1,-3.6%
COc1cc(C2C(C#N)=C(N)Oc3cc(C)oc(=O)c32)ccc1OC(=O)N1CCOCC1 (stereo not given),i,-0.29,0.8%
Cc1nn(Cc2ccccc2)c(C)c1NC(=O)c1cc(-c2ccco2)on1,i,-0.29,-13%
O=C1CC(c2ccco2)Cc2nc(N3CCc4ccccc4C3)ncc21 (stereo not given),i,-0.3,2.2%
O=C(NCC(=O)N(c1ccccc1)C(C(=O)NCC1CCCO1)c1ccccc1)c1ccco1 (stereo not given),i,-0.19,3.8%
Cn1c(C(=O)NCCc2c[nH]c3ccccc23)cc2sccc21,i,3.2,1.3%
COc1ccc(CC(=O)NCc2cccs2)cc1OC,i,·,-3.2%
Clc1cccc(-c2nnc3sc(-c4ccccc4)nn23)c1,i,-0.16,6.0%

# The listing continues.
structure,MT1-MMP reporter,WNV NS2B-NS3 inh,Hsc70
O=C(c1cnc2n(c1=O)CCS2)N(C1CCCCC1)C1CCCCC1,i,-0.93,4.4%
COC(=O)c1ccccc1NC(=O)C1CC=CCC1C(=O)O (stereo not given),i,-0.66,-7.2%
CCN(CC)CCN1C(=O)c2ccccc2NC1c1ccc(F)cc1 (stereo not given),i,·,-8.3%
Cc1sc2nc3n(c(=O)c2c1C)CCCCC3,i,·,1.1%
O=C(CN1CCC2(CC1)OCCO2)c1ccc2cc[nH]c2c1,i,-1.8,-4.0%

# Bioassay records deposited in PubChem by several laboratories.

# The list is partial; rates above refer to the full screens.
